Screening data deposited in PubChem by several laboratories.
Mtb H37Rv: M. tuberculosis H37Rv growth inhibitors, H37Rv strain (AID 1626) | actives 0.95% (n = 220,000) | inhibition, % at 10 µM; hits with a dose series show IC50 in µM | M. tuberculosis H37Rv growth inhibition; higher % means a stronger effect;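 active = confirmed in a dose series; inconclusive = inhibition above 80% but not taken into the dose series; inactive = below 80% or under 30% at every dose of the series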;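 note: bacteria incubated seven days before Alamar blue readout; 0% = bacteria only wells and 100% = bacteria with antibiotic wells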
Arbovirus anti: blocks arbovirus infection; actives 0.37% (n = 200,000); inhibition, % at 10 µM; arbovirus infection cell-based antiviral screen;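 active = inhibition from about 30%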;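 note: bluetongue infection of BSR cells; cell survival read as ATP light after 72 h; 0% = infected wells without compound and 100% = uninfected wells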
RecA splice inh: inhibitors of M. tuberculosis RecA intein splicing; P9WHJ3; cell-free RecA intein splicing, fluorescence; inhibition, %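 (about 9 µM by stock and volumes)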; actives 0.75% (n = 290,000); AID 2221; in the data active = inhibition above about 30%; inconclusive = no clear call, values can overlap the other calls;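 note: 0% = vehicle wells and 100% = reference inhibitor control wells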
Target sequence (P9WHJ3 whole entry, looked up, canonical isoform): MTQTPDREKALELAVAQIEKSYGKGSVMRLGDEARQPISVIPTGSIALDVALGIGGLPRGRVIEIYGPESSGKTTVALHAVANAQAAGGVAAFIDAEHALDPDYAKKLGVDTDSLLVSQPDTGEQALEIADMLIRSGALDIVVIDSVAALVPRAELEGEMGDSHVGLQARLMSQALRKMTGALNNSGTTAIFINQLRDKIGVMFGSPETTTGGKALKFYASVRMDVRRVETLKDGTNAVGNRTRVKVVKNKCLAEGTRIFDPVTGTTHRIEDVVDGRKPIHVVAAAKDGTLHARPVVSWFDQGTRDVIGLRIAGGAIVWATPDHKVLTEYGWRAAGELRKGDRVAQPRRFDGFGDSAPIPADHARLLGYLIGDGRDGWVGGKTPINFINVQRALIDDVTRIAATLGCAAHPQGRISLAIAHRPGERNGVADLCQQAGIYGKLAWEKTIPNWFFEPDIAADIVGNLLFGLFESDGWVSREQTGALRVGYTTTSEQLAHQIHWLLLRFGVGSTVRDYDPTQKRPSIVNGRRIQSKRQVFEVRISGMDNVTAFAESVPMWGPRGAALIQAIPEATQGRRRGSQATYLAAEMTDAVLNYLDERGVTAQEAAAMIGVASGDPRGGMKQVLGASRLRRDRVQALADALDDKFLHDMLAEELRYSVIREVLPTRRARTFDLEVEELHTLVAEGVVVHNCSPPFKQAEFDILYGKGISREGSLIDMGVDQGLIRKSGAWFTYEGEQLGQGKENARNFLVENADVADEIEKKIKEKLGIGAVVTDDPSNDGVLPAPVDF
Mtb betalactam: beta-lactam sensitization of Mtb H37Rv | actives 0.27% (n = 330,000) | inhibition, % at 25 µM | M. tuberculosis H37Rv growth with meropenem, percent inhibition; hits of this screen are not shown here;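 active = about 74% or more and at least 40 points above the plate without the antibiotic, then above 30% in a dose series; inconclusive = first-round hits that could not be retested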;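 note: growth measured after seven days incubation then overnight dye step; 0% = bacteria only wells and 100% = bacteria with antibiotic; twin plates without the antibiotic show which effects depend on it; some results filed as inactive read as strong as hits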
YopH PTP inh: blocks Yersinia enterocolitica YopH tyrosine phosphatase | fluorescence Ex485/Em525 | inhibition, %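 (about 10 µM by stock and volumes)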 | actives 0.16% (n = 140,000);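 active = inhibition of 50% or more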;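 note: controls were vehicle for no effect and minimum signal wells for full effect; inactives centre near -20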
Arbovirus anti repeat: further read-out of Arbovirus anti, marked with its call; inhibition, %; measured here: 10K subset replicate screen; many hits read low in the repeat;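 first of two repeat runs on a subset; 0% = infected and 100% = uninfected wells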
Starred values were filed as active, the others as inactive; ? = inconclusive; . = no result given.

SMILES	Mtb H37Rv	Arbovirus anti	RecA splice inh	Mtb betalactam	YopH PTP inh	others
COc1ccc(C=O)cc1Cn1c(C)cc(C)c(C#N)c1=O	13%	-1	1.8	-2	.
COc1ccc(OC)c(NC(=O)c2ccc(NC3=NC4CS(=O)(=O)CC4S3)cc2)c1 (stereo not given)	.	.	-0.8	-7	.
COc1ccc(NC2=CC(=O)CC(c3ccc(C)cc3)C2)c(OC)c1 (stereo not given)	-4%	.	0.2	-12	-11
Cc1nc2ccccc2c(=O)n1/N=C/c1ccc(OC(F)F)cc1	.	.	0.2	3	.
CC(C)Oc1cccc(C(=O)NC(=S)Nc2ccc(N3CCN(C)CC3)cc2)c1	9%	.	-0.7	38	.
CCCn1c(=N)n(CC(=O)c2ccco2)c2ccccc21	3%	-3	0.1	-5	-15
CC(=O)Nc1ccc(NC(=O)C2CCCN2S(=O)(=O)c2cccc(C(F)(F)F)c2)cc1 (stereo not given)	.	.	1.6	0	.
c1ccc(CN(Cc2ccccc2)c2nn[nH]n2)cc1	6%	3	0.1	-2	.
C=C1CCN(C(C)C(=O)O)S(=O)(=O)c2ccccc21 (stereo not given)	-6%	.	3.3	-5	.
O=C(CC12CC3CC(CC(C3)C1)C2)Nc1c(F)cccc1F	.	.	-1.5	1	.
COc1ccc(OC)c(NC(=O)c2ccc(NS(=O)(=O)c3c(C)noc3C)cc2)c1	-14%	7	0.7	5	-13
COCCN(C(=O)CSc1nc(N)cc(=O)[nH]1)c1c(N)n(Cc2ccccc2)c(=O)[nH]c1=O	.	.	-1.4	-7	.
COc1cccc(-c2coc3c(C)c4oc(=O)c(CC(=O)O)c(C)c4cc23)c1	.	.	-0.3	0	.
Cc1ccc(/C(N)=N/OC(=O)C23CC4CC(CC(C4)C2)C3)cc1	-19%	-5	1.4	1	-19
O=C(c1ccncc1)N1CCN(C(=O)c2cccs2)CC1	-7%	6	0.4	-8	-3
CC(=O)[C@H]1[C@H](c2cccc(Cl)c2)C(C#N)(C#N)[C@@H]2c3ccccc3C=CN21	5%	3	19	75	14
COc1ccccc1C(=O)N1C(CC(=O)Nc2ccc(C)c(C)c2)C(=O)NC2CCCCC21 (stereo not given)	.	.	1.0	-4	.
Cc1cc(C)c(C)c(S(=O)(=O)NCc2ccc(C(=O)NCC3CCCO3)cc2)c1C (stereo not given)	.	.	-1.1	-7	.
Cc1onc(-c2ccccc2)c1-c1ccnn1C(=O)NC(C)C	-2%	.	2.5	-5	.
CC(=O)Nc1ccc(S(=O)(=O)N2CCCN(c3nc(C)cc(C)c3C#N)CC2)cc1	.	.	1.2	-9	.
O=C(Nc1ccc(N2CCOCC2)cc1)C1(S(=O)(=O)c2ccccc2)CC1	-11%	7	2.2	1	-19
COc1ccc(CN(C)CC(=O)Nc2ccccc2C(F)(F)F)c(OC)c1	-2%	-7	0.5	9	-17
CCCSCCCNC(=O)Cn1cc2c(n1)CCC(C)C2 (stereo not given)	-2%	1	1.0	?	-16	Arbovirus anti repeat=-1
O=C(Oc1cccc(NC2=NS(=O)(=O)c3ccccc32)c1)c1ccncc1	-5%	-5	13	4	.
CC(C)c1onc(C(=O)N2CCN(c3ccccc3)CC2)c1[N+](=O)[O-]	10%	.	2.2	-9	.
CC1CCCCN1CCNC(=O)CN1C(=O)COc2ccccc21 (stereo not given)	-1%	9	-3.0	4	-29
COc1ccc(-n2c(NC(=O)c3ccc(Br)o3)c(C#N)c3nc4ccccc4nc32)cc1	.	10	0.3	.	1
O=C(Nc1ccc(Oc2ccc(Cl)cc2)cc1)c1ncn[nH]1	20%	-5	0.6	38	-31
CC1CC(=O)c2cnc(N)nc2C1 (stereo not given)	-1%	3	0.0	-4	-18
COC(=O)N/N=C(\C)c1cccc(C(F)(F)F)c1	0%	0	-4.0	6	.
CCO[C@H]1OC(C(=O)NC2CC2)=C[C@@H](c2coc3ccccc3c2=O)[C@@H]1CCCO	-8%	3	-0.3	-9	.
CC(C)CCNC(=O)CCCC1=NS(=O)(=O)c2ccccc2N1	0%	1	-0.2	-9	-14
C[n+]1ccn(CC(=O)c2ccc(Br)cc2)c1	-14%	12	-0.6	6	-18
COc1ccc(C2c3c(ccc4ccccc34)Oc3ncn4nc(Cc5ccccc5)nc4c32)cc1OC (stereo not given)	2%	-30	-0.5	2	-9
CC(C)NC(=O)NC(=O)COC(=O)CCCSc1nc2ccccc2s1	7%	8	-0.3	3	-35
O=c1[nH]c(/C=C/c2ccc([N+](=O)[O-])cc2)c([N+](=O)[O-])c(=O)[nH]1	.	.	-0.5	1	.
CCc1cccc(NC(=O)c2cc(OC)c(OC)c(OC)c2)c1	9%	-8	1.5	-7	.
O=C1CN(C(=O)c2ccc(Br)o2)C(c2ccc(F)cc2)c2cc(F)ccc2N1 (stereo not given)	-1%	-1	6.5	?	-20
O=C(Nc1cc(S(=O)(=O)N2CCOCC2)ccc1-n1cncn1)c1ccc(Cl)cc1	0%	.	2.9	1	.
COc1cccc(NC(=S)NCc2ccco2)c1	5%	-8	1.2	2	-28
Cc1noc(C(=O)Nc2sc3c(c2C#N)CCC3)c1Cl	16%	32*	1.1	7	-8	Arbovirus anti repeat=16*
O=C(CCCNC(=O)/C(=C/c1ccc(F)cc1)NC(=O)c1ccccc1)OCc1ccccc1	-9%	-5	0.2	3	-4
CNS(=O)(=O)c1ccc(N=Cc2c(O)n(-c3cccc(C)c3)c(=O)[nH]c2=O)cc1	-6%	2	1.5	1	.
O=C(NCc1ccccc1)C(=O)NCC1OCCCN1S(=O)(=O)c1cccs1 (stereo not given)	.	.	0.9	8	.
COc1cc(-c2c(C#N)c(N)nc(SCc3ccncc3)c2C#N)cc(OC)c1OC	5%	-13	9.7	58	-5
CCN(CC(=O)Nc1c(F)cccc1F)C(=O)C1CC(=O)N(c2ccccc2OC)C1 (stereo not given)	.	.	-1.5	-7	.
COc1ccc(-c2nn(-c3ccccc3)cc2C(=O)NC2CCCCC2C)cc1 (stereo not given)	.	.	1.7	-3	.
CC(C)(C)OC(=O)N/N=C\c1ccc(OC(=O)c2cccs2)cc1	?	-1	6.2	83	-22
Cc1ncc(CN2CCCC(C(=O)c3cccc(Cl)c3)C2)s1 (stereo not given)	-2%	-1	.	-6	.
NC(=O)C(=O)N/N=C/c1c[nH]c2ccc(Br)cc12	6%	-7	.	-1	.
Cc1cc(N2CCCC2)nc(SCC(=O)c2ccccc2)n1	-9%	-5	-1.8	5	-12
COc1ccc(C(c2nnnn2CC2CCCO2)N2CCN(c3cccc(C)c3C)CC2)cc1 (stereo not given)	15%	-14	21	-2	-29
N#CC(C#N)=NNc1ccc(S(=O)(=O)N2CCCC2)cc1	-6%	-11	30*	-1	-12
CN(C(=O)COC(=O)CN1C(=O)c2ccccc2C1=O)c1c(N)n(Cc2ccccc2)c(=O)[nH]c1=O	.	.	-1.3	-10	.
Cc1cccc(C)c1NC(=O)C(=O)NCC1CCCN1S(=O)(=O)c1ccccc1 (stereo not given)	.	.	0.0	-1	.
C/C(Cl)=C/CN1C(=O)C2C3C=CC(C3)C2C1=O (stereo not given)	-10%	-3	-1.3	-2	-7
Cc1ccc(SCCN2CCC(C)CCC2=O)cc1 (stereo not given)	.	.	-1.9	-13	.
Cc1cc(C)nc(SCc2ccc(C(=O)O)o2)n1	4%	5	1.8	0	-39
CCOc1ccc(NC(=O)N(C2CCCCC2)C2CCN(C(C)=O)CC2)cc1	>100µM*	15	-5.6	-12	0	Arbovirus anti repeat=6
O=C(Cc1ccccc1)N/N=C/c1cc(Br)cc(Br)c1O	.	.	0.4	8	.

(continued)
SMILES	Mtb H37Rv	Arbovirus anti	RecA splice inh	Mtb betalactam	YopH PTP inh	others
CCC(NC(=O)c1cc(COc2ccc(OC)cc2Cl)on1)c1ccncc1 (stereo not given)	.	.	1.5	2	.
Cc1cc(C)c2c(N)c(C(=O)c3cccc(Cl)c3)sc2n1	-5%	-10	-2.6	4	-26
Cc1ccc(C2=[N+]([O-])C3(CCCCC/C3=N\NC(N)=S)N(O)C2(C)C)o1 (stereo not given)	.	4	2.7	25	-20
COCCCNC(=O)c1cccc(C(=O)NCCCOC)c1	5%	5	-0.2	-7	-15
CCn1c(=O)cc(OCC(=O)NCCCN2CC(C)CC(C)C2)c2ccccc21 (stereo not given)	-5%	-23	0.5	1	-13
Oc1c(C(Nc2nccs2)c2ccc(C(F)(F)F)cc2)ccc2cccnc12 (stereo not given)	2%	-9	5.1	.	.
COc1ccc(-c2oc3cccnc3c2C#CCO)cc1	.	.	-5.4	56	.
Cc1cc2n(n1)SC(Nc1cc(Cl)ccc1Cl)N2 (stereo not given)	-1%	-5	.	7	-4
Cc1ccc(NC(=O)c2ccc3nsnc3c2)c(C)c1	.	.	1.2	4	.
Cc1cc([N+](=O)[O-])nn1CCCC(=O)N1CCN(c2ccccc2)CC1	2%	9	1.1	-3	-10
CCOc1ccc(-c2nc(N)ncc2Oc2cccc(OC)c2)c(O)c1	11%	2	-5.1	-5	3
CCCOc1ccc(C(=O)NNC(=S)NC(=O)c2cc(-c3ccccc3)nc3ccccc23)cc1	11%	-4	-3.9	66	36
C=CCSC1=C(C#N)C(c2ccc(OCC)cc2)CC(=O)N1 (stereo not given)	3%	-2	3.4	-3	-41	Arbovirus anti repeat=-2
N/C(=N\c1nc(CSc2ccccn2)cc(=O)[nH]1)Nc1ccc(Cl)cc1Cl	0%	.	-3.8	22	.
Cc1onc(-c2ccccc2)c1C(=O)Nc1ccc2c(c1)OCO2	-3%	-11	4.6	-1	-3

Structures above with two or more sulfur atoms, in the order listed:
SMILES	Mtb H37Rv	Arbovirus anti	RecA splice inh	Mtb betalactam	YopH PTP inh	others
COc1ccc(OC)c(NC(=O)c2ccc(NC3=NC4CS(=O)(=O)CC4S3)cc2)c1 (stereo not given)	.	.	-0.8	-7	.
CC(C)NC(=O)NC(=O)COC(=O)CCCSc1nc2ccccc2s1	7%	8	-0.3	3	-35
O=C(NCc1ccccc1)C(=O)NCC1OCCCN1S(=O)(=O)c1cccs1 (stereo not given)	.	.	0.9	8	.

Continued:
SMILES	Mtb H37Rv	Arbovirus anti	RecA splice inh	Mtb betalactam	YopH PTP inh	others
Cc1ccc(OC(=O)C2CSC3(C)CCC(=O)N23)c(Br)c1 (stereo not given)	.	.	8.4	0	.
Cc1nnc(NC(=O)CCSc2ccc(Cl)cc2)s1	5%	0	-1.1	-2	.
CCSc1nnc(N(CCC#N)CCC#N)s1	2%	-9	0.7	-13	-35
O=C1CCCCCC1C1(O)C(=O)Nc2ccc(Br)cc21 (stereo not given)	-8%	2	-2.6	5	-25
CCOC(=O)c1sc(NC(=S)NC(=O)c2ccccc2)nc1C	-4%	-18	0.4	2	.
CCCCCc1nc2ccccc2c(=O)n1-c1ccccc1[N+](=O)[O-]	8%	2	3.2	3	-8
CC(C)N(C(=O)CSc1nnc(NC(=O)c2cccs2)s1)C(C)C	-11%	4	3.3	4	-11
C=CCN(CC=C)C(=O)Nc1cc(OC)ccc1OC	-2%	.	2.7	0	.
COc1cc(F)c(S(=O)(=O)N2CCOc3ccccc32)cc1OC	.	.	1.1	6	.
COCCCN=CC1=C(O)CC(c2ccccc2)CC1=O (stereo not given)	.	.	1.8	3	.

Entries shown so far that have an aryl thioether with sulfur outside any ring, in the order listed:
SMILES	Mtb H37Rv	Arbovirus anti	RecA splice inh	Mtb betalactam	YopH PTP inh	others
COCCN(C(=O)CSc1nc(N)cc(=O)[nH]1)c1c(N)n(Cc2ccccc2)c(=O)[nH]c1=O	.	.	-1.4	-7	.
CC(C)NC(=O)NC(=O)COC(=O)CCCSc1nc2ccccc2s1	7%	8	-0.3	3	-35
COc1cc(-c2c(C#N)c(N)nc(SCc3ccncc3)c2C#N)cc(OC)c1OC	5%	-13	9.7	58	-5
Cc1cc(N2CCCC2)nc(SCC(=O)c2ccccc2)n1	-9%	-5	-1.8	5	-12
Cc1ccc(SCCN2CCC(C)CCC2=O)cc1 (stereo not given)	.	.	-1.9	-13	.
Cc1cc(C)nc(SCc2ccc(C(=O)O)o2)n1	4%	5	1.8	0	-39
N/C(=N\c1nc(CSc2ccccn2)cc(=O)[nH]1)Nc1ccc(Cl)cc1Cl	0%	.	-3.8	22	.
Cc1nnc(NC(=O)CCSc2ccc(Cl)cc2)s1	5%	0	-1.1	-2	.
CCSc1nnc(N(CCC#N)CCC#N)s1	2%	-9	0.7	-13	-35
CC(C)N(C(=O)CSc1nnc(NC(=O)c2cccs2)s1)C(C)C	-11%	4	3.3	4	-11

A portion of the library (hit frequency here may not be typical).
